# From PubChem BioAssay
# AID504770 – E. coli YBA685 growth inhibition, screen for V. cholerae RctB inhibitors; z-score (test concentration not listed); 130,000 tested, 0.27% active; E. coli YBA685 rctB-dependent plasmid, OD600 growth, 3 h; active compounds read low;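 active = z-score under -2 on both plates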;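 also: wells of about 30 µL received 100 nL stock; score is relative to mean and SD of the test wells; the first replicate is given; strong numbers were not always called active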
# Ba CapD inh – CapD enzyme inhibition | purified CapD enzyme, fluorescence intensity read-out; active compounds read low; some hits fall short of the stated cut | z-score (no concentration beside the values) | 140,000 tested, 0.23% active;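 active = z-score under -4 in either of two replicates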;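 also: stock transfer was 100 nL into about 40 µL; score is relative to mean and spread of the plate; one replicate is shown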
# Numbers without * were called inactive; . = no result given. Only part of the results is shown; rates above refer to the full screens.
SMILES,AID504770,Ba CapD inh
O=C1c2ccccc2C(=O)N1c1ccc(O)cc1,0.2,0.15
C=CCN=c1scc(-c2ccc(O)c(C(N)=O)c2)n1N=C1CCCC1,-0.2,.
CC(C)P(=O)(Cc1cccc(C#N)c1)C(C)C,-0.35,.
COc1ccc(N=Cc2ccc3ncccc3c2)cc1N,-0.45,-0.21
O=C(O)CCCC(=O)N1N=C(c2ccc(Br)cc2)CC1c1ccc(Cl)cc1 (configuration not stated),.,4.9
CC(C)N1CN=C(Nc2nc3ccccc3o2)NC1,-0.1,0.65
Cc1ccc(C)n1-c1ccc2c(c1)OCCO2,1.2,-0.94
Cc1cccc(NC(=O)Nc2nnc(N3CCCCC3C)s2)c1C (configuration not stated),-0.8,-0.9
CSc1nc(C)nc(N/C=C(\C#N)S(=O)(=O)c2ccccc2Cl)n1,0,-0.22
Cc1ccc(-c2cc3c4c(C)n(Cc5ccc6c(c5)OCO6)c(C)c4c(C)nn3c2)o1,-0.7,15
Cc1ccc(NC(=O)C(=O)NCCN2CCN(S(=O)(=O)c3ccc(F)cc3)CC2)cc1Cl,.,-0.015
CCOC(=O)c1[nH]c2c(c1-c1ccccc1)C(=O)CC(c1cccs1)C2 (configuration not stated),-0.45,-0.18
COC(=O)c1ccc(NCC(=O)N2CC(C)CC(C)C2)cc1 (configuration not stated),0.6,0.4
O=C(Nc1csc2ccccc12)NC1CCN(Cc2ccccc2)CC1,0.9,-0.36
CCOC(=O)c1c(C)[nH]c(C(=O)C(C)OC(=O)C2CC(=O)N(CCc3ccccc3)C2)c1C (configuration not stated),0.2,.
NC(=O)c1nnn(-c2cccc(C(F)(F)F)c2)c1-c1ccccc1,-0.6,0.15
CC(C)(C)c1cc(C(=O)CSc2nncn2-c2ccccc2)cc(C(C)(C)C)c1O,.,-0.76
C=CCn1c(CNC(=O)c2ccccc2)nnc1SCC(=O)N1CCN(c2ccccc2)CC1,0.05,0.76
O=C(OC1CCCCC1=O)c1ccc(-c2cccc(C(F)(F)F)c2)o1 (configuration not stated),0.05,.
C=CCn1c(CNC(=O)c2cccs2)nnc1SCC(=O)c1ccc(Br)cc1,-0.45,0.4
CCOC(=O)c1ccc(COc2nc3ccccc3nc2-c2ccccc2NC(C)=O)o1,-0.15,0.47
c1cncc(CNCc2cccnc2)c1,1.2,.
Cc1cc(C)n(/N=C2/C(=O)Nc3ccc(Br)cc32)c(=O)c1C#N,-0.25,.
c1ccc(Cn2nnnc2-c2ccco2)cc1,-0.85,-0.43
COc1ccc(N2CCN(CCNC(=O)c3oc(=O)c4ccccc4c3-c3ccccc3)CC2)cc1,.,-1
CN1CCC(N(C)C(=O)c2cc(-c3ccccc3)oc2-c2ccc(C(F)(F)F)cc2)CC1,.,69
CC(=O)Nc1ccsc1C(=O)O,1.1,0.66
CCCCOC(=O)Nc1cc(C)ccc1C,-0.15,0.11
Cc1cc(C)c2c(CC(=O)Nc3sc4c(c3C(=O)NCC3CCCO3)CCC4)coc2c1 (configuration not stated),0.15,6.3
CCOC(=O)c1ccc(OCc2nc(-c3ccc(OC)c(OC)c3)no2)cc1,0.3,1.5

# Fetched by compound from the entries so far (six):
SMILES,AID504770,Ba CapD inh
NC(=O)c1nnn(-c2cccc(C(F)(F)F)c2)c1-c1ccccc1,-0.6,0.15
CCOC(=O)c1ccc(OCc2nc(-c3ccc(OC)c(OC)c3)no2)cc1,0.3,1.5
COc1ccc(N2CCN(CCNC(=O)c3oc(=O)c4ccccc4c3-c3ccccc3)CC2)cc1,.,-1
CN1CCC(N(C)C(=O)c2cc(-c3ccccc3)oc2-c2ccc(C(F)(F)F)cc2)CC1,.,69
CC(=O)Nc1ccsc1C(=O)O,1.1,0.66
c1ccc(Cn2nnnc2-c2ccco2)cc1,-0.85,-0.43

# The main list resumes with the five entries that preceded the break.
SMILES,AID504770,Ba CapD inh
CN1CCC(N(C)C(=O)c2cc(-c3ccccc3)oc2-c2ccc(C(F)(F)F)cc2)CC1,.,69
CC(=O)Nc1ccsc1C(=O)O,1.1,0.66
CCCCOC(=O)Nc1cc(C)ccc1C,-0.15,0.11
Cc1cc(C)c2c(CC(=O)Nc3sc4c(c3C(=O)NCC3CCCO3)CCC4)coc2c1 (configuration not stated),0.15,6.3
CCOC(=O)c1ccc(OCc2nc(-c3ccc(OC)c(OC)c3)no2)cc1,0.3,1.5
COc1ccc(C2=C/C(=C(/C#N)C(=O)NCc3ccco3)c3cc(C)ccc3O2)cc1,2.5,.
CN(C)C(=O)CN1C(=O)c2ccccc2S1(=O)=O,-0.7,.
O=C1CN(c2ccc(Cl)cc2)C2(CCCCC2)S1,-0.75,0.01
N#C/C(=C\N1CCc2ccccc21)S(=O)(=O)Cc1ccco1,-1.4,-0.16
CCC(=O)Nc1nc(-c2ccc(Cl)c(Cl)c2)nc2c1c(=O)oc1ccccc12,2,0.3
O=C(NC(=S)Nc1ccccc1)c1ccco1,-0.6,-0.11
O=C1Nc2ccc(Cl)cc2C12SCCS2,-0.8,-0.75
CCOc1ccc2c(c1)-c1c(ssc1=Nc1ccc(OC)cc1OC)C(C)(C)N2,.,-0.32
CCOc1ccc(N(CC)C(=O)C2CCCN(S(=O)(=O)c3cccc4nsnc34)C2)cc1 (configuration not stated),-0.55,-0.72
CNS(=O)(=O)c1cc(-c2n[nH]c(=O)c3ccccc23)ccc1C,.,-0.03
N#Cc1c(F)cccc1NC(=O)C1CCCCC1,-0.1,-1.3
CN1CCN(C(=O)Cc2ccccc2)CC1,-0.7,0.1
O=C(CN1CCC(C(=O)Nc2ccccc2)CC1)Nc1cc(C(F)(F)F)ccc1-n1cncn1,2.5,.
O=C(OCc1csc(-c2ccccc2)n1)c1ccccc1,-0.25,0.78
Cc1cc(N2CCC(C(=O)O)CC2)n2nc(C)c(-c3ccc(Cl)cc3)c2n1,1.6,0.59
CC(C)(C)C(=O)Cc1nc(O)cs1,0.45,-1.1
O=C(N1CC2CC(C1)c1cccc(=O)n1C2)C(F)(F)F (configuration not stated),0.2,-0.075
CCC(N)C12CC3CC(CC(O)(C3)C1)C2 (configuration not stated),-0.25,0.19
Cc1cc(C)n(-c2nc3cc(Cl)ccc3nc2Nc2ccc3c(c2)n(C)c(=O)n3C)n1,1.6,-0.085
COc1ccccc1OCc1nnc(SCC(=O)N(C)C)o1,-0.05,.
O=C(NC1CCCCC1)c1cc2cnccc2nc1C(F)(F)F,.,-0.33
CC(C)c1nc2ccccc2[nH]1,.,0.4
C=CCn1c2ccccc2c2nnc(SCC(=O)NC3=NN=C(c4ccccc4)CS3)nc21,1.6,-1.6
COc1cc(/C=C\C(=O)Nc2c3c(nn2-c2ccc(Cl)cc2)CS(=O)(=O)C3)cc(OC)c1OC,.,12
OCc1nc(-c2cccc(C(F)(F)F)c2)cs1,-0.2,-0.73
O=C(CCCCCCCCCCCCC1CCCC1)Nc1ccc(S(=O)(=O)c2ccc(NC(=O)CCCCCCCCCCCCC3CCCC3)cc2)cc1,0.3,.
COc1ccc(C2c3cc(OC)c(OC)cc3CCN2C(C)=O)cc1OC (configuration not stated),0.4,-1.4
CN(C)c1cccc(C(=O)OCc2ccc(C#N)cc2)c1,-0.05,.
CCOC(=O)c1c2ccc(OCC(=O)NCc3ccco3)cc2n2ccccc12,.,-0.045
CC1CCc2cc(F)ccc2N1C(=O)CCC(=O)O (configuration not stated),0.4,-0.045
CC(=O)/C(=N\O)c1ccccc1,.,0.05
COc1ccc(C(O)c2nccn2C)cc1OC (configuration not stated),-0.05,-0.39
COc1ccc(Nc2nc(Nc3ccc(OC)cc3)nc(Sc3nccn3C)n2)cc1,.,-0.21
CCCn1c(SCc2nc(-c3ccc(OC)cc3)no2)nnc1-c1ccncc1,-0.15,0.52
CC(C)(C)c1cc(C(C)(C)C)n(-c2ccc(C(=O)NNC(=O)/C=C/c3ccco3)cc2)n1,.,0.12
N#Cc1ccc(OCC(=O)Nc2ccncc2)cc1,-0.9,-0.32
S=C(NCCCN1CCOCC1)Nc1ccccc1,-0.8,.
O=C(COC(=O)c1cccnc1Cl)NC12CC3CC(CC(C3)C1)C2,0.45,0.22
COC(=O)C1CCN(C(c2ccc(OC)cc2)c2sc3ncnn3c2O)CC1 (configuration not stated),0.85,.
COc1cccc(/C=C2\C(=O)NC(=O)N(c3ccc(Br)c(C)c3)C2=O)c1OC,.,-0.58
CC1=C(C(=O)N2CCOCC2)C(c2ccc3c(c2)OCCO3)NC(=S)N1 (configuration not stated),-0.1,.
COCC(=O)Oc1ccc2c(C)c(Cc3ccc(F)cc3)c(=O)oc2c1,0.6,1.9
CCSc1nc(O)cc(=O)n1-c1ccc(OC)cc1,-0.15,0.46
C=CCn1c(SCC#N)nc2c(c1=O)C1(CCCCC1)Cc1ccccc1-2,0.5,0.44
CCC(Sc1nc2c(c(=O)[nH]1)CCC2)C(=O)Nc1cccc(OC)c1 (configuration not stated),-1.1,0.24
O=C(COC(=O)C1(c2ccccc2F)CCCC1)N1CCCCC1,0.75,-0.48
O=C(O)CCC(=O)N1N=C(c2ccc(Br)cc2)CC1c1cccs1 (configuration not stated),.,3.1
CCOc1ccc(Br)cc1C=Nc1c(C)n(C)n(-c2ccccc2)c1=O,.,-0.19
COc1ccc(CCn2c(NCc3ccco3)nc3c2c(=O)[nH]c(=O)n3C)cc1,-0.6,.
Cc1cccc(C)c1NC(=O)COC(=O)Cn1nnc(-c2ccccc2)n1,1.6,.
CCN=C1SC(CC(=O)Nc2ccc(C(F)(F)F)cc2)C(=O)N1CC (configuration not stated),.,-0.51
Cc1cccc(OCC(=O)N(Cc2ccco2)Cc2ccco2)c1,-0.65,0.48
COC(=O)NCc1ccc(CNC(=O)OC)cc1,0.2,0.12
CC(Sc1nc2ccccc2n1C)C(=O)Nc1ncc(Cl)cc1Cl (configuration not stated),-0.9,.
CCCC(=O)N1c2cc(C)c(C)cc2/C(=C2/SC(C(=O)OCC)=C(c3ccccc3)S2)C(=S)C1(C)C,.,-0.42
CC(C)(C)CC(=O)Nc1cccc2c1CCCC2,0.1,0.74
Cc1ccc(S(=O)(=O)N(O)c2ccc(Cl)cc2)cc1,0.25,-0.11
CON/C=N/c1nnc(/C(C#N)=C/c2ccc(Cl)cc2Cl)s1,.,-0.045
COC(=O)C1=CN(Cc2ccc(OC)c(OC)c2)C=C(C(=O)OC)C1c1cccc(OC)c1OC,.,19
COc1cccc(N/C(SCc2cccc([N+](=O)[O-])c2)=C(/C#N)C(=O)NCc2cccs2)c1,.,-0.44

# (list continues)
SMILES,AID504770,Ba CapD inh
O=C(CCC(=O)c1ccc(F)cc1)OC1CCOC1=O (configuration not stated),-0.05,.
CCCCn1c(CCC(=O)O)nc2cc(S(=O)(=O)N3CCOCC3)ccc21,-0.6,.
CCNC(=O)c1ccccc1NC(=O)c1cccc(S(=O)(=O)N2CCCC2)c1,-0.15,73
O=c1oc(-c2ccc(Cl)cc2)nnc1-c1ccccc1,-1.4,-0.42
CCNc1ncnc2c1cnn2-c1ccc(C)cc1,-1.8,0.91
O=C(NC1CC(=O)N(c2ccccc2)C1)N1CCN(C(=O)c2ccco2)CC1 (configuration not stated),0.3,.
O=C(CCn1c(=O)sc2ccccc21)NCCCc1ccccc1,-0.4,1.4
O=C1/C(=C\c2ccc(OC(F)F)cc2OC(F)F)Oc2cc(O)ccc21,-0.65,.
CCOc1ccc(Nc2nc(Nc3ccc(C(C)=O)cc3)nc(C)c2[N+](=O)[O-])cc1,.,-0.52
CCOC(=O)C1=C(C)NC(C)=C(C(=O)OCC)C1c1ccc(-c2cc(C(F)(F)F)cc(C(F)(F)F)c2)o1,.,1.4
Cc1cccc(NC(=O)CS(=O)(=O)c2c[nH]c3ccccc23)c1C,-0.65,-0.69
CCn1nccc1C(=O)O,0.5,.
CC(=O)Nc1ccccc1NC(=O)C(C)C,0.9,0.55
CCn1c(C(=O)N2CCCC(C(=O)O)C2)cc2sccc21 (configuration not stated),-0.15,-0.085
COc1ccc(C(C(C#N)C#N)C2C(=O)N(Cc3ccccc3)N=C2C)cc1 (configuration not stated),-0.65,.
CSc1nc(Oc2ccc3ccccc3c2)c2cnn(-c3ccccc3)c2n1,.,-0.26
O=C1c2ccccc2C(=O)C1(c1ccccc1)N1CCN(c2ccccc2)CC1,1.4,-0.51
O=C(CCCSc1nnc(-c2cccs2)n1CC1CCCO1)c1ccccc1 (configuration not stated),-1,.
CN(C(=O)c1noc2c1CCCC2)c1ccccc1Cl,0.35,-0.17
CC(C)(C)c1cc(C(=O)CSc2nnnn2-c2ccccc2)cc(C(C)(C)C)c1O,-0.75,-0.33
CCC(=O)NC(c1ccco1)c1cc(Cl)c2cccnc2c1O (configuration not stated),-0.05,-0.26
COc1ccccc1C(=O)NCC(=O)Nc1ccc(-c2nnc3n2CCCCC3)cc1,-0.05,.
CC(=O)c1ccc(C#Cc2ccccc2)s1,.,24
NN(CCc1ccncc1)C1=NS(=O)(=O)c2ccccc21,-0.9,0.4
CCOC(=O)CCC(C#N)(c1ccc(Cl)cc1)N1CCOCC1 (configuration not stated),.,-0.31
COC(=O)CN1C(=O)C2(C(C#N)=C(N)Oc3c2c(C)nn3-c2cccc(Cl)c2)c2ccccc21 (configuration not stated),.,-0.73
Cc1oc2c(c1C(=O)Nc1ccc(I)cc1)CCCC2,-0.75,-0.1
C=CCn1c(SCC(=O)c2ccccc2)nc2ccccc21,0.75,.
Fc1ccc(NC(=S)NC2CCCCCCCCCCC2)cc1,.,0.06
CCc1ccccc1Nc1nc(N)nc(CSc2ccc(F)cc2)n1,1.1,.
CC(C)(C)C(C)(C)O,-0.2,.
C=CCOC(=O)C1=C(C)OC(N)=C(C#N)C1c1ccc2c(c1)OCO2 (configuration not stated),.,0.09
O=c1nc(SCc2ccccc2)c2c(n1Cc1cccnc1)CCC2,-0.4,.
Cn1nc(C(=O)N2CCCCCC2)c2ccccc2c1=O,0.25,.
C=CCN(CC=C)S(=O)(=O)c1ccc(C(=O)Nc2sc3c(c2C(N)=O)CCN(C(C)C)C3)cc1,-0.8,-1.4
Cc1nc2ccccc2c(C)c1CC(=O)N1CCN(CCOc2ccccc2)CC1,0.05,.
